Vaccinia Venus – inhibitors of vaccinia virus (Venus reporter); AID 720580; Potency, µM (titrated, usually from 36.5 µM), inactives show at the top dose activity change, negative = inhibition, usual class: inhibitors; Vaccinia virus Venus reporter expression, fluorescence; 330,000 tested, 0.46% active; active means well fitted inhibition curve with a large enough effect; inconclusive means small, poorly fitted or top-dose-only effect; inactive means no such curve, though single readings can be large or run the other way; tested in A549 cells; further: nearly all actives have a fitted effect of over 30% in size; inactives centre near -10
Vaccinia mCherry – inhibitors of vaccinia virus infection (mCherry reporter signal); Vaccinia virus mCherry reporter infection, fluorescence; about a quarter of the inactives have no number; Potency, µM (doses to about 36.5 µM), for inactives: top-dose activity change, negative = inhibition, hits mostly inhibitors; 310,000 tested, 0.63% active; AID 720579; active = well fitted inhibition curve with a large enough effect; inconclusive = small, poorly fitted or top-dose-only effect; inactive = no such curve, though single readings can be large or run the other way; tested in A549 cells; further: nearly all actives have a fitted effect of over 35% in size; inactives centre near -10
* = called active by the depositor; i = inactive; ? = inconclusive; . = no result given; [ ] = dose if it differs, or a comment. On the % scale 0 is the no-effect control and ±100 the full control effect; potency means the concentration at half of the fitted maximal effect. An unsorted share of the library; overall some 0.87% were active at least once.

#1 CCCCNC(=O)C1(C)CCCCCN1Cc1cccc2c(OC)cc(C(=O)OCC)cc12 (stereo unspecified)
#2 N#Cc1ccccc1Cn1c(=O)n(-c2ccccc2)c(=O)c2c3c(sc21)CCC3
#3 Cc1cccc(-n2c(N)c(C(=O)N3CCN(C)CC3)sc2=S)c1
#4 CN(CC(=O)Nc1ccc(Cl)cc1)C(=O)CCc1ccccc1
#5 CC(C)CNC(=O)N1CCN(S(=O)(=O)c2ccc3c(ccn3C)c2)CC1
#6 O=C(NCC1CCCO1)/C(=C\c1ccc(Cl)cc1)NC(=O)c1ccccc1 (stereo unspecified)
assay / compound,1,2,3,4,5,6
Vaccinia mCherry,i,-7%,.,-14%,-16%,.
Vaccinia Venus,-14%,-5%,-9%,0%,-8%,-3%

#7 Cn1c(O)c(/C=C2\C=Nc3ccc(Br)cc32)c(=O)n(C)c1=O
#8 Cc1ccc(Cn2c(SCCN3CCCCC3)nc3c2c(=O)[nH]c(=O)n3C)cc1
#9 COc1cc(/C=N/NC(N)=S)ccc1OCc1ccc(C)cc1
#10 O=C(C[N+]1(CCO)CCOCC1)c1cccs1
#11 O=C(c1ccc(OC2CCN(C/C=C/c3ccccc3)CC2)cc1)N1CCCCC1
#12 CC1=NN(c2ccccc2)C(=O)C1C(=O)C(=O)Nc1ccc(F)cc1 (stereo unspecified)
assay / compound,7,8,9,10,11,12
Vaccinia mCherry,4%,-25%,11µM*,-9%,-10%,-2%
Vaccinia Venus,17%,?,?,-6%,-21%,1%

#13 COc1cccc(CN2CCNC(=O)C2CC(=O)N(C)CCC2CCOCC2)c1OC (stereo unspecified)
#14 CCOC(=O)C(O)(c1ccc(N=c2ccccn2C)cc1)C(F)(F)F (stereo unspecified)
#15 CCC(C)NC(=O)CSc1nc(-c2cccs2)cc(C(F)(F)F)n1 (stereo unspecified)
#16 Cc1ccc(S(=O)(=O)c2cc3cc(Br)ccc3oc2=O)cc1
#17 CC(C)NC(=O)Nc1ccc2c(c1)C(=O)N([C@H](C)CO)C[C@H](C)[C@@H](CN(C)S(=O)(=O)c1ccc(F)cc1)O2
#18 CCC(=O)N1CCc2cc(S(=O)(=O)CCC(=O)Nc3ccc(F)c(F)c3)ccc21
assay / compound,13,14,15,16,17,18
Vaccinia mCherry,i,-3%,i,i,-15%,-3%
Vaccinia Venus,-10%,-13%,-18%,-15%,5%,-18%

#19 Cc1cccc(NC(=O)CCc2c(C)nc3nc(CNC(=O)c4cccc(F)c4)nn3c2C)c1
#20 CCC(c1nc2ccccc2c(=O)n1CCCn1ccnc1)N1C(=O)c2ccccc2C1=O (stereo unspecified)
#21 O=C(NCC1CCCN1S(=O)(=O)c1cccs1)c1ccccc1F (stereo unspecified)
#22 CCc1ccc(NC(=O)Nc2cccc(OC)c2)cc1
#23 Cn1c(=O)c2c(n3c4ccccc4nc13)NC(=O)CC2c1cccc(F)c1 (stereo unspecified)
#24 CC(=O)c1c(C)nc2ccc(Cl)cn12
assay / compound,19,20,21,22,23,24
Vaccinia mCherry,10%,i,i,i,1%,-16%
Vaccinia Venus,4%,-5%,-24%,-19%,0%,-9%

Values by screen from the entries so far.
Compounds 19 to 24 in Vaccinia mCherry, in turn: 10%, i, i, i, 1%, -16%

(more compounds)
#25 O=C(NCc1ccccc1)c1ccc(=O)[nH]n1
#26 CC(C)CCN1C(=O)CSCC1(C)C(=O)NC(C)C (stereo unspecified)
#27 CC[C@@H]1C=C(C(=O)O)[C@H](c2ccc3c(c2)OCO3)N1S(=O)(=O)c1ccc(C)cc1
#28 Cc1c(C(=O)NCc2ccccc2)oc2c1-c1[nH]ncc1CC2
#29 COc1cc(/C=N/Nc2ccc(Cl)c(C(=O)O)c2)ccc1OC(=O)c1ccc(F)cc1
#30 COc1ccccc1CNC(=S)Nc1ccc(S(N)(=O)=O)cc1
assay / compound,25,26,27,28,29,30
Vaccinia mCherry,.,-13%,?,0%,-10%,-19%
Vaccinia Venus,?,-11%,-2%,5%,-2%,-16%

#31 CS(=O)(=O)N1CCC(Oc2ccccc2C(=O)NC2CCCCCC2)CC1
#32 O=C(CCc1ccccc1)Nc1cc(NC(=O)CCc2ccccc2)cc(C(=O)O)c1
#33 Cc1ccc(Cl)cc1N1CCN(C(=O)c2sc3nc4n(c(=O)c3c2C)CCC4)CC1
#34 O=C1CC(SC(=NCc2ccc3c(c2)OCO3)Nc2ccccc2)C(=O)N1 (stereo unspecified)
#35 CCOC(=O)N1CCC(NC(=O)c2c(C)nn(-c3ccc(C)cc3)c2-n2cccc2)CC1
#36 CCCn1c(N)c(C(=O)CSc2nnnn2-c2ccc(O)cc2)c(=O)n(C)c1=O
assay / compound,31,32,33,34,35,36
Vaccinia mCherry,i,-5%,-12%,.,i,.
Vaccinia Venus,-11%,-21%,-12%,-8%,-4%,-8%

#37 Cc1cc(C)cc(NC(=O)C2CCN(C(=O)c3cccs3)CC2)c1
#38 COc1ccc(NC(=O)c2cc(-c3cc(F)ccc3OCC3CCCO3)n[nH]2)cc1OC (stereo unspecified)
#39 O=c1c2ccccc2c(C=NCc2ccccn2)c(O)n1-c1ccccc1Cl
#40 O=C1CC(Cc2ccc(Cl)cc2)C(=O)N1c1ccncc1 (stereo unspecified)
#41 CCOC(=O)/C(=N\Nc1ccccc1[N+](=O)[O-])c1csc(Nc2ccccc2)n1
#42 CSCCC1NC(=O)N(CC(=O)Nc2cccc3ccccc23)C1=O (stereo unspecified)
assay / compound,37,38,39,40,41,42
Vaccinia mCherry,i,-15%,-7%,.,-18%,.
Vaccinia Venus,0%,-20%,-3%,-15%,-21%,-11%

#43 O=C1NC(N2CCOCC2)=N/C1=C/c1ccc2c(c1)OCO2
#44 COc1ccc(C(C(=O)NC(C)(C)C)N(CCC(C)C)C(=O)CCC(=O)Nc2cc(C)on2)cc1 (stereo unspecified)
#45 CCCCN(C)CCNC(=O)CSCc1ccc(C)cc1
#46 O=C(O)CCC(=O)Nc1nc2ccc([N+](=O)[O-])cc2s1
#47 Cc1ccc(O)c(C)c1
#48 S=c1[nH]nc(-c2ccc3c(c2)OCO3)n1-c1ccccc1
assay / compound,43,44,45,46,47,48
Vaccinia mCherry,i,-2%,i,-1%,-7%,-11%
Vaccinia Venus,13%,-2%,6%,-7%,-4%,-1%

2 compounds picked at random from those above, as already listed:
#47 Cc1ccc(O)c(C)c1
#43 O=C1NC(N2CCOCC2)=N/C1=C/c1ccc2c(c1)OCO2
assay / compound,47,43
Vaccinia mCherry,-7%,i
Vaccinia Venus,-4%,13%

Additional compounds follow.
#49 Cc1ccc2cc(C)c(NCCO)nc2c1
#50 Cc1ccnc(NS(=O)(=O)c2cccc3nsnc23)c1
#51 O=C(Nc1ncc(Cc2ccc(SC(F)F)cc2)s1)c1ccccc1
#52 O=C(NCc1ccco1)c1[nH]c(C(F)(F)F)nc1-c1ccccc1
#53 Cc1cccc(OCC(=O)N2CCCc3ccccc32)c1
#54 Cc1cc(C(=O)Nc2ccccc2C(=O)O)ccc1NC(=O)COc1cccc([N+](=O)[O-])c1
assay / compound,49,50,51,52,53,54
Vaccinia mCherry,.,.,?,21%,-1%,i
Vaccinia Venus,?,-7%,-30%,6%,-6%,-8%

Reformatted as a markdown table: 3 of the compounds above.
| No. | structure | Vaccinia mCherry | Vaccinia Venus |
| --- | --- | --- | --- |
| 54 | Cc1cc(C(=O)Nc2ccccc2C(=O)O)ccc1NC(=O)COc1cccc([N+](=O)[O-])c1 | i | -8% |
| 53 | Cc1cccc(OCC(=O)N2CCCc3ccccc32)c1 | -1% | -6% |
| 51 | O=C(Nc1ncc(Cc2ccc(SC(F)F)cc2)s1)c1ccccc1 | ? | -30% |

New compounds follow
#55 COCOc1cccc(CN2CCC2(C)C(=O)Nc2ccc(OC)c(OC)c2)c1 (stereo unspecified)
#56 COCc1nc2c([nH]1)c(=O)n(C)c(=O)n2CC(C)C
#57 O=C1CS/C(=C\S(=O)(=O)c2ccc(Cl)cc2)N1
#58 Cc1cccc(NC(=O)CNC(=O)[C@H]2O[C@@H](n3cnc4c(N)ncnc43)[C@H](O)[C@@H]2O)c1C
#59 COc1ccc(/C=C2/N=C(SCC(=O)Nc3cc(C)on3)N(c3ccccc3)C2=O)cc1
#60 c1nnc(-c2ccc3c(c2)OCO3)o1
assay / compound,55,56,57,58,59,60
Vaccinia mCherry,-10%,-10%,-11%,18%,-7%,-2%
Vaccinia Venus,-13%,-9%,-4%,-2%,-10%,8%

#61 Cc1ccc(CCNC(=O)c2cn(C)c3ccc(S(=O)(=O)N4CCC(C)CC4)cc3c2=O)cc1
#62 COc1ccc(-c2nc(C)c(CCNC(=O)C(=O)Nc3ccccc3F)s2)cc1
#63 Cc1c(NC(=O)C(C)OC(=O)c2ccc(Cl)nc2)c(=O)n(-c2ccccc2)n1C (stereo unspecified)
#64 Cc1cccc(C)c1-n1nnnc1C1(Nc2ccccc2)CCCCC1
#65 Cc1cc(-c2nc3cccnc3s2)ccc1NS(=O)(=O)c1ccc2c(c1)OCCO2
#66 O=C1c2ccccc2C(Nc2ccc(S(=O)(=O)N3CCOCC3)cc2)N1c1cccnc1 (stereo unspecified)
assay / compound,61,62,63,64,65,66
Vaccinia mCherry,-16%,?,i,-12%,i,-9%
Vaccinia Venus,-10%,?,-8%,0%,-18%,-5%

#67 CCOc1ccc2nc(N3C(=O)/C(=C/c4ccccc4)NC3=S)sc2c1
#68 COc1cc([N+](=O)[O-])cc(/C=N/NC(=O)C(C)Nc2ccccc2C)c1O (stereo unspecified)
#69 CN1c2ccccc2N(C)C1(C)c1ccccc1
#70 C=CCNC(=O)COC(=O)c1cccnc1Nc1ccccc1F
#71 O=C(c1ccc(Br)cc1)c1cc2ccc(O)cc2oc1=O
#72 CCN(Cc1ccccc1)C(=O)c1ccccc1C
assay / compound,67,68,69,70,71,72
Vaccinia mCherry,2%,-16%,40%[activator],4%,-11%,-8%
Vaccinia Venus,-9%,-25%,30%,-6%,-8%,-8%

#73 CC(C)(C)c1ccc(C(=O)N/N=C/c2ccc(OCCCF)cc2)cc1
#74 Cc1ccc(CNC(=O)c2sc3nc[nH]c(=O)c3c2C)cc1
#75 O=C(O)C1=C[C@H](C2CC2)C[C@H](OCCCCO)O1
#76 CNc1nc2ccccc2n1CC(=O)c1ccccc1
#77 CCC1(C)Cc2c(sc3nc4n(c(=O)c23)CCCS4)CO1 (stereo unspecified)
#78 O=c1c2cc(NC(=S)NC3CCCC3)ccc2nc2n1CCCCC2
assay / compound,73,74,75,76,77,78
Vaccinia mCherry,-13%,-9%,i,-9%,-14%,-14%
Vaccinia Venus,-9%,-12%,-11%,-19%,-8%,-24%

Single entries from above:
no. 73 | Vaccinia Venus: -9%
no. 76 | Vaccinia Venus: -19%
no. 78 | Vaccinia mCherry: -14%

Next compounds.
#79 COC(=O)c1c(NC(=O)CSc2nnnn2-c2ccccc2)sc2c1CCC(C)C2 (stereo unspecified)
#80 O=c1[nH]c(O)c(C=Nc2ccccc2Sc2ccccc2)c(=O)[nH]1
#81 COCCn1c(=NC(=O)c2ccc(S(=O)(=O)N3CCCc4ccccc43)cc2)sc2cc(S(C)(=O)=O)ccc21
#82 O=c1c2c(-c3ccccc3)csc2ncn1/N=C/c1cccc([N+](=O)[O-])c1O
#83 O=C(/N=C1\NC(=O)C(F)(C(F)(F)F)S1)NC1CCCCC1 (stereo unspecified)
#84 CSc1nnc2c(n1)OC(c1cn(C)c3ccccc13)N(C(C)=O)c1ccccc1-2 (stereo unspecified)
assay / compound,79,80,81,82,83,84
Vaccinia mCherry,?,-24%,i,-27%,.,-20%
Vaccinia Venus,-9%,-52%,-3%,-20%,-13%,-26%

#85 Cc1cc(OCCCC(=O)NCCN2C(=O)S/C(=C\c3cccnc3)C2=O)ccc1Cl
#86 COc1ccc(NC(=O)c2ccc(-c3c(C)noc3C)c3ccoc23)cn1
#87 C/C(=C\c1ccccc1)C(=O)c1c(C)cc(C)[nH]c1=O
#88 COCCCNC(=O)c1nn(C)c2c1CS(=O)(=O)c1ccccc1-2
#89 COc1cccc(-c2n[nH]nc2C2=CC(=O)CC(C)(C)C2)c1
#90 COc1ccc(-n2nc3c(N4CCC(C(=O)NCc5cccc(F)c5)CC4)nnc(C)c3c2C)cc1
#91 CN(N)c1nc(-c2ccccc2)cc(-c2ccccc2)n1
assay / compound,85,86,87,88,89,90,91
Vaccinia mCherry,-9%,-8%,i,-8%,i,?,i
Vaccinia Venus,0%,-22%,-4%,-9%,-6%,28µM*,-10%

Compound activity (PubChem)
